Assay outcomes from PubChem BioAssay.
AF4-AF9 inh: inhibitors of human MLL-AF4/AF9 interaction | P42568 | AlphaScreen, biotin-AF4 peptide binding to FLAG-AF9 | inhibition, % at 10 µM | 350,000 compounds, 0.47% hits;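 active = every replicate reaching a set inhibition limit, whatever the replicate mean, cut at about 25% in these data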;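 note: 0% = plate neutral control median and 100% = total signal loss; the record names both 10 and 1 µM as test concentration; the first replicate is given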
Target sequence (P42568 whole entry, looked up): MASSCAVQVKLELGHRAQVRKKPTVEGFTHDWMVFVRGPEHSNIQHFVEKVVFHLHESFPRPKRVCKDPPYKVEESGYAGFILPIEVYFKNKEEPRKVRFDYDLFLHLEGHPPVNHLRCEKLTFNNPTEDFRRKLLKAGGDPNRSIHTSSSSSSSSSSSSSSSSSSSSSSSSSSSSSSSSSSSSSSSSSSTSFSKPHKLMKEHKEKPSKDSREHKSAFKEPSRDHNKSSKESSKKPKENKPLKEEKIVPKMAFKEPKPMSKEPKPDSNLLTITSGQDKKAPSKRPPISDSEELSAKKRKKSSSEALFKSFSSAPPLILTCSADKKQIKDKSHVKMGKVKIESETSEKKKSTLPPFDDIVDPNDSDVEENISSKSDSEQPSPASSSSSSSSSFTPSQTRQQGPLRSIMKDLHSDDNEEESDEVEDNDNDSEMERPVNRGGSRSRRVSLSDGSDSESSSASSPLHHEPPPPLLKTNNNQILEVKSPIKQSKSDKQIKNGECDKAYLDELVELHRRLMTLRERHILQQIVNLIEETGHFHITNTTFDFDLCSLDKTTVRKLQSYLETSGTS
rRNA inh HTS: inhibits bacterial ribosomal RNA function over humanized ribosomes | E. coli WT GFP vs humanized-ribosome RFP mutants, fluorescence, 24 h; stronger effect = lower value; DMSO median 0, no signal -100 | GFP signal change (wild-type ribosome), % (concentration not given with the values) | 350,000 compounds, 1.6% hits | AID 720706;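 active = significant combined selectivity score with lowered wild-type GFP, culture density cut under 30%, mutant RFP and density less affected; inactive = any of these conditions unmet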; note: one replicate is shown; some compounds called inactive have numbers as strong as hits
FGF22 binding: binders of recombinant human FGF22 by thermal shift; Q9HCT0; SYPRO orange fluorescence; percent of sucrose octasulfate shift, DMSO zero; calls only at 9.99 µM; 340,000 compounds, 1.5% hits;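 active = melting point raised past a set limit in the mean and every replicate; three in four hits are not shown here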
Target sequence (Q9HCT0 whole entry, looked up): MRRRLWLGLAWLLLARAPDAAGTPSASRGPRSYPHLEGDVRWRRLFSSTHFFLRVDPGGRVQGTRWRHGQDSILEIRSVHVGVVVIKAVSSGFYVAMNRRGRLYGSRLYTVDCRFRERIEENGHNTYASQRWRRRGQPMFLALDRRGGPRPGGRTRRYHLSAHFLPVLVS
rRNA inh HTS OD600: recorded beside rRNA inh HTS, whose call it bears; OD600 change, %; measured here: OD600 growth;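 optical density of the mix in the first replicate; 0 = DMSO median and -100 = no signal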
rRNA inh HTS RFP: also measured in rRNA inh HTS; calls as there; RFP signal change, %; measured here: RFP humanized mutant strains;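 first replicate; 0 = DMSO median and -100 = no signal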
Active calls of the source: *; i = inactive; & = joins results of further samples. The list is partial (hit frequency here may not be typical).

Values in the order – rRNA inh HTS	AF4-AF9 inh	FGF22 binding	rRNA inh HTS RFP	rRNA inh HTS OD600
O=C(NCc1cc(F)cc(F)c1)[C@H]1[C@H](CO)[C@H]2Cn3c(cccc3=O)[C@@H]1N2C(=O)c1cnccn1
  1.6	0.5	i	-0.8	13.6
CC(C)NC(=O)N1Cc2cc(C(=O)NC3Cc4ccccc4C3)nc(-c3cccc(-c4cccnc4)c3)c2[C@H]1CCO
  -21.2	-12.7	i	0.6	-30.9
C[C@H]1CN([C@@H](C)CO)S(=O)(=O)c2ccc(C#CC3(O)CCCC3)cc2O[C@@H]1CN(C)C(=O)Nc1ccc(F)cc1
  -0.1	-0.1	i	0.7	-7.6
Cc1cccc(C)c1NC(=O)C(c1ccncc1)N1CCN(CCN(C)C)CC1 (centres undefined)
  20.9	-1.6	i	-0.3	15.7
COc1ccc(C#Cc2cnc3c(c2)C(=O)N([C@H](C)CO)C[C@H](C)[C@H](CN(C)C)O3)cc1
  4.2	5.1	i	4.0	0.0
COc1cccc(S(=O)(=O)Nc2ccc3c(c2)[C@H]2C[C@@H](CC(=O)NCc4ccc(Cl)cc4)O[C@H](CO)[C@H]2O3)c1
  0.7	0.0	i	7.0	-8.9
O=C(C[C@@H]1CC[C@@H](NS(=O)(=O)c2ccc(F)cc2)[C@H](CO)O1)N1CCc2ccccc2C1
  -3.0	-4.4	i	1.2	1.5
Cc1ccc(S(=O)(=O)NCC2CCN(C(=O)C(=O)c3cc4ccccc4o3)CC2)cc1
  -2.1	0.2	i	8.7	-9.0
Cc1ccc(S(=O)(=O)NCC[C@@H]2CC[C@@H](NC(=O)c3cnccn3)[C@@H](CO)O2)cc1
  1.0	-0.5	i	-1.7	-0.7
Cc1ccccc1-c1cnc2c(c1)C(=O)N([C@H](C)CO)C[C@H](C)[C@@H](CN(C)Cc1cncnc1)O2
  -2.1	-0.1	i	-0.1	0.5
O=C(C[C@H]1CC[C@H]2[C@@H](COC[C@@H](O)CN2C(=O)c2ccc3c(c2)OCO3)O1)NCCN1CCCCC1
  -3.8	-2.2	i	-0.8	-8.1
CCCNC(=O)C[C@@H]1CC[C@H]2[C@@H](COC[C@@H](O)CN2C(=O)c2cccnc2)O1
  1.4	-1.7	i	-6.7	0.2
C[C@H]1CN([C@@H](C)CO)C(=O)c2cccc(NC(=O)Nc3cccc4ccccc34)c2O[C@@H]1CN(C)S(=O)(=O)c1ccc(Cl)cc1
  -0.6	1.0	i	0.5	-1.5
CO[C@H]1CN(C)C(=O)c2cc(NS(=O)(=O)CC(F)(F)F)ccc2OC[C@@H](C)N(CCC(F)(F)F)C[C@@H]1C
  -1.6	-1.9	i	-4.9	3.0
O=C(c1cccc(F)c1)N1C[C@@H]2[C@H](c3ccccc31)[C@@H](CO)N2C(=O)Cc1ccccc1
  -4.2	-1.7	i	-4.6	7.2
COCC#Cc1ccc2c(c1)O[C@@H](CN(C)C(=O)C1CCC1)[C@@H](C)CN([C@H](C)CO)S2(=O)=O
  -0.9	-4.4	i	1.7	-7.1
C[C@H]1CN([C@@H](C)CO)C(=O)c2cc(NS(C)(=O)=O)ccc2O[C@H]1CN(C)CC1CC1
  6.8	-3.3	i	0.7	11.1
Cc1noc(C)c1S(=O)(=O)Nc1cccc2c1O[C@@H](CN(C)C(=O)Nc1ccc3c(c1)OCO3)[C@@H](C)CN([C@@H](C)CO)C2=O
  -2.4	2.1	i	2.4	-0.3
O=C(NCc1ccc(F)cc1)[C@@H]1[C@@H](CO)[C@@H]2Cn3c(cccc3=O)[C@@H]2N1CC1CC1
  0.7	0.6	i	-0.3	-14.4
C[C@H]1CN([C@@H](C)CO)S(=O)(=O)c2ccc(C3=CCCC3)cc2O[C@H]1CN(C)S(=O)(=O)c1cn(C)cn1
  3.5	-1.0	i	-1.2	-2.3
N#C[C@@H]1[C@@H](c2ccc(C3=CCCC3)cc2)[C@@H](CO)N1C(=O)Cc1ccncc1
  3.3	0.0	i	-1.0	19.4
Cc1cccc(OC(=O)Nc2ccc(C(=O)O)c(O)c2)c1
  -2.8	-2.8	i	4.6	11.0
O=C(Cc1ccccc1)N1C[C@H]2[C@@H](c3ccccc31)[C@H](CO)N2C(=O)C1CCOCC1
  -1.6	-5.2	i	1.3	6.0
C[C@@H]1CN([C@H](C)CO)C(=O)c2cc(-c3ccc(F)cc3)cnc2O[C@H]1CN(C)C(=O)c1ccccn1
  -1.5	-1.7	i	-3.3	2.5
CCc1nc2ccc(C(=O)NCc3cccs3)cn2c1N(C)Cc1nccs1
  -2.2	1.7	i	-3.7	-5.5
C[C@H]1CN([C@@H](C)CO)C(=O)CCCn2cc(nn2)CO[C@H]1CN(C)C(=O)Nc1ccc(N2CCCCC2)cc1
  1.4	9.7	i	2.8	5.6
C/C=C/c1ccc([C@H]2[C@@H](CO)N(C(=O)NC(C)C)[C@H]2CN(C)C(=O)CC)cc1
  -0.9	-3.7	i	-0.8	2.7
O=C(C[C@@H]1C[C@@H]2c3cc(NC(=O)C4CCC4)ccc3O[C@@H]2[C@H](CO)O1)NCc1cccc(F)c1
  3.1	4.1	i	-1.2	-4.0
C[C@H](CO)N1C[C@H](C)[C@H](CN(C)Cc2ccncc2)Oc2ncc(C#CCC3CCCC3)cc2C1=O
  -18.3	3.3	i	32.1	-57.0
COCCNC(=O)C1(C)CCCN(C(=O)c2ccc(OC)c(OC)c2)C1 (centres undefined)
  -6.7	0.5	i	3.5	-4.9
COc1cccc(NC(=O)N2C[C@@H](O)COC[C@H]3O[C@@H](CC(=O)NC4Cc5ccccc5C4)CC[C@@H]32)c1
  -0.7	1.8	i	-4.6	-3.6
COCC(=O)N1[C@@H]2CN(C(=O)NC(C)C)c3ccccc3[C@@H]2[C@@H]1CO
  4.0	-0.1	i	-2.6	5.1
O=C(O)[C@@H]1[C@@H](CO)[C@@H]2Cn3c(ccc(-c4ccccc4F)c3=O)[C@@H]2N1C(=O)c1cnccn1
  3.4	-0.6	i	0.9	5.0
COc1cccc(C#Cc2ccc([C@H]3[C@@H](CO)N4C(=O)CN(S(=O)(=O)c5ccccc5C)C[C@@H]34)cc2)c1
  7.4	-1.0	i	-1.0	11.6
C[C@@H]1CN([C@H](C)CO)C(=O)CCCn2cc(nn2)CO[C@H]1CN(C)C(=O)Oc1ccccc1
  0.8&11.7	-0.2&-1.4&-1.1	i	-2.0&0.0	0.1&10.8
C[C@@H]1CN([C@@H](C)CO)C(=O)c2cc(NS(=O)(=O)c3ccc(F)cc3)ccc2O[C@H]1CN(C)C(=O)Nc1cccc2ccccc12
  -8.4	-1.9	i	1.7	-7.0
CC1C(=O)N(Cc2cn(CC3CCCCC3)nn2)CCS(=O)(=O)N1Cc1ccc(-c2ccc(F)nc2)cc1 (centres undefined)
  1.4	-0.4	i	5.6	-1.7
CCOc1ccc(C(=O)Cc2ccccc2)cc1
  -10.2	-4.6	i	-1.9	-12.7
CO[C@@H]1CN(C)C(=O)c2ccc(NC(=O)c3ccc4c(c3)OCO4)cc2OC[C@H](C)NC[C@H]1C
  0.0	-2.9	i	-2.9	-0.3
CCCNC(=O)C[C@H]1CC[C@H]2[C@@H](COC[C@@H](O)CN2C(=O)c2cccnc2)O1
  2.3	-3.1	i	-4.2	5.2
COc1ccc2c3c(n(C)c2c1)[C@@H](CO)N(C)CC31CCN(CC2CC2)CC1
  3.7	-2.6	i	-0.7	7.3
C[C@H]1CN([C@@H](C)CO)C(=O)Cc2cc(NC(=O)C3CC3)ccc2O[C@@H]1CN(C)C(=O)Nc1cccc2ccccc12
  4.3	-4.2	i	1.5	2.0
C[C@H]1CN([C@@H](C)CO)C(=O)c2c(c3ccccc3n2C)-c2ccccc2CO[C@@H]1CN(C)C(=O)[C@@H](Cc1ccccc1)N(C)C
  -0.8	23.8	i	0.1	-1.0
Cc1noc(C)c1S(=O)(=O)Nc1cccc2c1O[C@@H](CN(C)Cc1ccc(C(=O)O)cc1)[C@@H](C)CN([C@H](C)CO)C2=O
  3.5	-7.8	i	-1.2	3.8
COc1cc(CN2C[C@@H](CO)O[C@@H](n3cnc4c(NC5CC5)ncnc43)C2)cc(OC)c1OC
  -0.1	-0.3	i	-4.3	5.0
CCc1nc(N2[C@H](C#N)[C@H](c3ccccc3-c3ccccc3F)[C@H]2CO)sc1C
  -0.9	-0.5	i	-1.4	-2.9
O=C(Oc1ccc[nH]c1=O)c1ccc(F)cc1
  6.2	-3.7	i	-0.5	11.2
COc1ccc(-c2ccc([C@H]3[C@H](C#N)N(C(=O)C4CCC4)[C@H]3CO)cc2)cc1
  1.2	1.6	i	-2.1	-2.8
O=C(Nc1cc(F)ccc1F)N[C@@H]1CC[C@H](CCNC(=O)c2cnccn2)O[C@H]1CO
  3.3	-3.7	i	-1.8	5.3
Cc1ccccc1NC(=O)C[C@H]1CC[C@H]2[C@@H](COc3ccc(NC(=O)NC(C)C)cc3C(=O)N2C)O1
  3.5	-2.9	i	-1.3	8.1
COc1ccc(NC(=O)Nc2ccc3c(c2)CC(=O)N([C@H](C)CO)C[C@H](C)[C@H](CN(C)S(=O)(=O)c2ccc(Cl)cc2)O3)cc1
  -3.0	1.0	i	0.2	-10.5
CC(=O)Nc1c(C#N)c(-c2ccccc2)c(C#N)c(=O)n1-c1ccc(C)cc1
  7.5	1.3	i	9.8	11.6
CC(C)NC(=O)c1cc(C2CCCCN2C(=O)c2ccc(C(C)C)cc2)on1 (centres undefined)
  -11.2	9.4	i	6.5	-5.0
C[C@H](NC(=O)C[C@@H]1CC[C@@H](NC(=O)Nc2ccc3c(c2)OCO3)[C@H](CO)O1)c1ccccc1
  -0.5	-2.1	i	-6.0	16.7
CN(C)C(=O)[C@H]1[C@H](CO)[C@H]2Cn3c(ccc(-c4cccc(F)c4)c3=O)[C@@H]1N2Cc1ccccc1
  0.8	1.0	i	1.2	-4.4
COc1ccc(S(=O)(=O)Nc2ccc3c(c2)C(=O)N([C@@H](C)CO)C[C@H](C)[C@@H](CN(C)C(=O)Nc2ccc(F)cc2)O3)cc1
  -0.6	-0.5	i	-2.6	4.2
O=c1cccc(-c2cccc3ccccc23)o1
  -2.9	5.7	i	4.1	4.4
Cc1noc(C)c1NC(=O)N[C@@H]1C=C[C@@H](CC(=O)N2CCCCC2)O[C@@H]1CO
  2.0	1.0	i	-1.1	-1.6
CC(C)CC#Cc1cnc2c(c1)C(=O)N([C@@H](C)CO)C[C@@H](C)[C@H](CN(C)C(=O)C1CCOCC1)O2
  3.0	-2.8	i	-2.2	-0.3
CC(C)C#Cc1ccc2c(c1)O[C@H](CN(C)C(=O)c1cccnc1)[C@@H](C)CN([C@@H](C)CO)S2(=O)=O
  -1.9	2.7	i	-0.3	-0.3

Fetched by structure from above:
Values in the order – rRNA inh HTS	AF4-AF9 inh	FGF22 binding	rRNA inh HTS RFP	rRNA inh HTS OD600
O=C(O)[C@@H]1[C@@H](CO)[C@@H]2Cn3c(ccc(-c4ccccc4F)c3=O)[C@@H]2N1C(=O)c1cnccn1
  3.4	-0.6	i	0.9	5.0
COc1ccc(S(=O)(=O)Nc2ccc3c(c2)C(=O)N([C@@H](C)CO)C[C@H](C)[C@@H](CN(C)C(=O)Nc2ccc(F)cc2)O3)cc1
  -0.6	-0.5	i	-2.6	4.2

Structures above containing a COOH group (3):
Values in the order – rRNA inh HTS	AF4-AF9 inh	FGF22 binding	rRNA inh HTS RFP	rRNA inh HTS OD600
Cc1cccc(OC(=O)Nc2ccc(C(=O)O)c(O)c2)c1
  -2.8	-2.8	i	4.6	11.0
O=C(O)[C@@H]1[C@@H](CO)[C@@H]2Cn3c(ccc(-c4ccccc4F)c3=O)[C@@H]2N1C(=O)c1cnccn1
  3.4	-0.6	i	0.9	5.0
Cc1noc(C)c1S(=O)(=O)Nc1cccc2c1O[C@@H](CN(C)Cc1ccc(C(=O)O)cc1)[C@@H](C)CN([C@H](C)CO)C2=O
  3.5	-7.8	i	-1.2	3.8

Going on with the list.
Values in the order – rRNA inh HTS	AF4-AF9 inh	FGF22 binding	rRNA inh HTS RFP	rRNA inh HTS OD600
COc1ccc(S(=O)(=O)Nc2ccc3c(c2)C(=O)N([C@H](C)CO)C[C@H](C)[C@H](CN(C)Cc2ccc(C(F)(F)F)cc2)OCCCC[C@H](C)O3)cc1
  -3.0	0.9	i	3.6	-5.2
COCC#Cc1ccc2c(c1)O[C@@H](CN(C)C(=O)C1CC1)[C@H](C)CN([C@H](C)CO)S2(=O)=O
  1.5	-1.5	i	0.7	-7.9
C[C@@H]1CN([C@@H](C)CO)C(=O)c2cc(NC(=O)C3CCCCC3)ccc2O[C@H]1CN(C)CC1CCCCC1
  -0.2	0.4	i	-1.7	-4.3
O=C(C[C@@H]1C[C@H]2c3cc(NC(=O)Nc4ccccc4)ccc3O[C@H]2[C@@H](CO)O1)NCc1ccncc1
  -0.5	0.8	i	-0.8	-5.6
C[C@@H]1CN([C@H](C)CO)C(=O)c2cc(NS(=O)(=O)c3ccccc3)ccc2O[C@@H]1CN(C)CC1CC1
  2.9	0.8	i	4.1	-2.1
O=C(N[C@@H]1CC[C@H](CCNC(=O)C2CCCC2)O[C@H]1CO)c1ccncc1
  -0.3	1.1	i	-0.4	2.6
